Assay outcomes: PubChem BioAssay, several laboratories
Beta apoptosis – beta cell apoptosis inhibition; hit rate 0.8% among 300,000; protection from apoptosis, % (test concentration not listed); INS-1E cytokine-induced death, ATP luminescence, 48 h; percent of positive-control rescue, neutral wells zero;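 active means all replicates at 75% or more, or half of them and the mean; inconclusive means half reach 75% but not the mean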;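 further: 0% = cytokine-treated negative control wells and 100% = positive control rescue; higher means more ATP so stronger rescue from cytokine killing; wells of about 40 µL received 100 nL stock; the first replicate is given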
Calb FLC – C. albicans growth modulation with fluconazole | AID 1979 | C. albicans CaCi-2 (fluconazole-resistant clinical isolate) + fluconazole, Alamar Blue growth, 48 h | hit rate 0.57% among 300,000 | growth inhibition, % (test concentration not listed);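 active means most replicates above 75%; inconclusive means exactly half above 75%; inactive means most below 75%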;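 further: all wells also contain fluconazole at 8 µg/ml as a sub-toxic cotreatment; 0% = median of DMSO wells and 100% = median of geldanamycin control wells; wells of about 8 µL received 7.5 nL stock; the first replicate is given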
RanGTP-Impb inh – disruptors of Ran-importin-beta complex formation – biochemical, FRET, CFP-Ran, YFP-importin-beta, homogeneous, primary screen; AID 2216; inhibition, % (concentration not given with the values); hit rate 1.1% among 300,000; cell-free CFP-Ran/YFP-importin-beta FRET ratio;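 active means most replicates above 15%; inconclusive means exactly half above 15%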;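 further: 0% = DMSO wells and 100% = Ran loaded with GDP instead of GTP; wells of about 40 µL received 100 nL stock; the first replicate is given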
T cruzi repl – blocks replication of Trypanosoma cruzi; AID 1885; inhibition, % (test concentration not listed); T. cruzi beta-gal in NIH3T3, luminescence, 90 h; hit rate 1.4% among 300,000;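 active means mean inhibition across valid replicates above about 55%, limit read from the data; inconclusive means mean below that limit but half or more replicates reach it; inactive means mean below it, under half of replicates reach it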;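 further: signal also drops with host cell toxicity which is not excluded here; 0% = plate median of DMSO wells and 100% = zero luminescence signal; higher percent means less beta-gal luminescence so fewer parasites; stock transfer was 50 nL into about 50 µL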
B2AR ag – human beta-2 adrenergic receptor agonism by FAP. P07550. Am2.2-beta2AR cells, FAP receptor internalization, flow cytometry; reference of the scale not given here. response, % (no concentration beside the values). hit rate 0.43% among 340,000;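 active means response above a set limit, near 3 SD of response in nonfluorescent compounds, cut at about 42% in these data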;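 further: stock transfer was 100 nL into about 11 µL; a reference agonist was the positive control; negative values mostly stem from fluorescent compounds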
Target sequence (P07550 whole entry, looked up): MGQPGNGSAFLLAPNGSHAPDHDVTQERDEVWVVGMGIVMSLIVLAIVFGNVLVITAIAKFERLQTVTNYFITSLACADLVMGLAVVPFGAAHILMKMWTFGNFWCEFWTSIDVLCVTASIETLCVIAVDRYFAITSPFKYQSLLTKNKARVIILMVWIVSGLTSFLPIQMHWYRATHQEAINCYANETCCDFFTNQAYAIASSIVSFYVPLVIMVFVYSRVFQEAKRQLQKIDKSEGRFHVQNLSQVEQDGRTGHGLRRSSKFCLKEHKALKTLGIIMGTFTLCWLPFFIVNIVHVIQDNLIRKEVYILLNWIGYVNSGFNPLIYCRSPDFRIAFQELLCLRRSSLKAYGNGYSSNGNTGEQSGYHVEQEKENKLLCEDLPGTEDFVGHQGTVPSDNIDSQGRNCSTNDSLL
UCH37 DUB inh – human UCH37 deubiquitinating enzyme inhibition; Q9Y5K5; purified proteasome/UCH37, Ub-AMC cleavage fluorescence; inhibition, % (test concentration not listed); hit rate 0.33% among 330,000;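 active means mean of two replicates above 20%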;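 further: 0% = compound-free wells with enzyme and 100% = wells lacking proteasome; stock transfer was 100 nL into about 20 µL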
Target sequence (Q9Y5K5 whole entry, looked up): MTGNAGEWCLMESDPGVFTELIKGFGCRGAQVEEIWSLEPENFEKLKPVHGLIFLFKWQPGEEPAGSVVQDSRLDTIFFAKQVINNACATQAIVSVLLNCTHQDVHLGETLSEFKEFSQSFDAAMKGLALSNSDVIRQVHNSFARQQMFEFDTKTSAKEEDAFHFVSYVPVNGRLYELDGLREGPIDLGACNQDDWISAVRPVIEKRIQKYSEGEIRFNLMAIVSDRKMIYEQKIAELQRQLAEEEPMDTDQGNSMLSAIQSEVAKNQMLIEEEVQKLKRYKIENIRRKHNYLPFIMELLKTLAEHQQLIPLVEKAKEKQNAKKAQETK
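Material: Human UCH37 enzyme supplied as purified proteasome complex | Schedule: 30 min preincubation with enzyme, 25 min cleavage at room temperature | Detection: AMC fluorescence 355/460 nm | Measure: % inhibition of Ub-AMC cleavage fluorescence | Controls: Wells without proteasome as full block, compound-free enzyme plus substrate as uninhibited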
LANA-H2B inh – blocks KSHV LANA binding to histone H2A/H2B | Q9QR71 | cell-free LANA-H2A/H2B peptide, fluorescence polarization | inhibition, % (concentration not given with the values) | hit rate 0.6% among 320,000; in the data active means inhibition mostly above about 10%, no sharp cut-off; inactive means mostly below about 6.7%;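 further: stock transfer was 7.5 nL into about 10 µL; 0% = median of vehicle wells and 100% = median of positive control wells; one replicate is shown; the record names a cut of 25% in any replicate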
A1 inh – inhibitors of the anti-apoptotic protein A1, read as caspase activation; MEF A1-2A-BIM cells, Caspase-Glo 3/7 luminescence, 3 h; percent of clofoctol response, vehicle zero; caspase activation, % (concentration not given with the values); hit rate 0.066% among 330,000;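 active means over half of replicate activation scores above 10%, or exactly half above 10 with the replicate mean above 10; inconclusive means replicate mean below 10 yet half the replicates above 10; inactive means over half of replicates below 10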;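 further: wells of about 30 µL received 50 nL stock; many hits fall short of the cut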
* = called active by the depositor; ? = inconclusive; · = no result given; & = joins results of further samples.

SMILES	Beta apoptosis	Calb FLC	RanGTP-Impb inh	T cruzi repl	B2AR ag	UCH37 DUB inh	LANA-H2B inh	A1 inh
O=C(COC(=O)CCC(=O)c1ccc2c(c1)OCCO2)NCc1ccc2c(c1)OCO2	-6	11	6.5	-7	-1	4.8	-5.8	0.0
Cc1ccc2sc(N(CCN(C)C)C(=O)c3ccc4ccccc4c3)nc2c1C	-5	-19	4.3	35	0	1.1	-1.2	0.3
COc1cc(-n2c(=O)c3ccccc3n(CC(=O)OCc3ccccc3)c2=O)cc(OC)c1OC	-10	-3	3.0	-4	-2	0.7	0.6	-0.3
O=C(/C(=N/O)n1cncn1)c1ccccc1Cl	-1	-2	1.5	-12	0	·	1.8	-0.3
COc1ccc(N(C(=O)c2snc(C(N)=O)c2N)C(C(=O)NC2CCCC2)c2ccco2)c(OC)c1 (stereo not given)	·	-12	-3.2	48	70*	-9.8	·	·
COc1ccc(-c2cc(C(=O)Nc3c(F)cc(F)cc3Br)no2)cc1	-11	1	-2.0	25	1	1.0	-3.2	0.1
CCOC(=O)C(=N/O)/C(C)=N/NC(C)=O	5	-3	?	6	-5	·	-2.9	-0.2
O=C(O)c1cc2ccccc2n1-c1ccccc1	0	2	-9.8	5	-2	0.4	0.5	-0.8
CC(C)[C@H](NS(=O)(=O)c1ccccc1)C(=O)Nc1ccccc1N1CCOCC1	-2	·	·	·	-4	1.0	2.0	0.0
COc1ccccc1CCN=C(N)NS(=O)(=O)c1ccc(F)cc1	-6	·	·	-11	0	-1.4	0.3	-0.2
COCCNCC(=O)Nc1ccc(C)c(S(=O)(=O)N2CCCCC2)c1	0	-4	-6.9	1	-5	1.5	-1.6	0.2
CCOc1ccc(/C=C/[N+](=O)[O-])c2ccccc12	6	4	-0.9	-1	78*	1.9	3.3	0.5
FC(F)(F)c1cc(-c2ccccc2)nc(-n2cncn2)n1	2	6	-4.7	10	-11	0.5	-4.3	0.3
Cc1ccccc1N(CC(=O)NCc1ccncc1)S(C)(=O)=O	0	2	2.9	-11	2	1.3	-4.5	0.1
O=C(Nc1ccccc1N1CCCC1)c1cccc(S(=O)(=O)N2CCOCC2)c1	0	-6	·	-5	-3	1.5	2.3	1.1
COc1cccc(CN2CCN(S(=O)(=O)c3ccc(Cl)s3)CC2)c1	·	15	5.6	-2	1	·	3.1	0.3
O=C(O)C1CC(O)CN1S(=O)(=O)c1ccc2ccccc2c1 (stereo not given)	6	·	·	·	-2	4.1	0.7	0.6
O=C(Cc1ccccc1)N1CCC(c2ccccc2)C1 (stereo not given)	-2	8	-3.3	-2	-5	-0.4	-3.5	1.2
O=C(COC(=O)c1cccc(Cl)c1Cl)NCCN1C(=O)CSC1=O	-7	4	-0.3	-8	-3	2.2	4.1	0.2
C/C(Cn1nc([N+](=O)[O-])cc1C)=N\NC(=O)c1ccc(O)cc1O	-4	1	7.2	6	4	·	1.2	-0.7
CC(=O)c1ccc(N/C=C\C(=O)c2ccc(C)cc2)cc1	5	-44	-1.9	-5	-1	-1.2	-3.0	-0.1
CCN(CC(=O)Nc1c(F)cccc1F)C(=O)C1CCC1	-4	-3	0.2	-4	2	3.0	0.7	0.9
Cc1cc(N2CCCC2)nc(-c2ccccc2O)n1	-1	-3	-2.4	15	-6	-13	0.2	0.3
O=C(c1ccc(Cl)s1)N1CCN(c2nc3ccccc3s2)CC1	·	-2	6.5	3	6	3.9	-1.1	1.1
Cc1sc(NC(=O)Cc2ccc3c(c2)OCO3)nc1-c1ccc2c(c1)CCN2C(=O)c1ccccc1F	15	-2	1.9	56*	0	4.0	-0.1	0.3

Further records follow.
SMILES	Beta apoptosis	Calb FLC	RanGTP-Impb inh	T cruzi repl	B2AR ag	UCH37 DUB inh	LANA-H2B inh	A1 inh
COc1cc(CNc2ccc(N3CCCC3)cc2)cc(Cl)c1OC	63	87*	-1.1	73*	13	0.7	2.1	0.4
Cc1noc(N)c1C(=O)Nc1ccc(F)cc1	-3	-2	2.9	-4	1	5.3	-5.5	-0.1
CCCn1nc(C(=O)Nc2cc(C(=O)OC)ccc2C)c2ccccc2c1=O	-13	-49	3.8	12	7	-2.2	1.1	0.0
O=C(Cn1cncn1)NCCCc1ccccc1	-1	7	3.9	-5	2	4.0	0.2	-0.2
COc1ccccc1C1=CC(=O)CCC1	0	-8	-3.6	-8	-4	4.5	-6.7	0.7
Cc1cccc(C(=O)NNC(=O)c2ccc(Br)cc2)c1	-1	20	-1.7	11	-1	4.5	-3.7	-1.1
CN(C)c1ccc(C(CNC(=O)c2ccc(-c3ccccc3)cc2)N2CCOCC2)cc1 (stereo not given)	·	-10	1.8	3	-4	·	-3.0	0.7
CCCCCCCn1c2c(c(=N)c3c1CCC3)CCCC2	·	94*	-0.1	59*	-4	7.1	·	·
COc1ccccc1N(CC(=O)NC1CCCCC1)C(=O)CCC(=O)Nc1ccccn1	-7	-2	0.7	-5	-10	-1.5	-5.5	0.1
CC1(c2nnc(-c3ccccc3)o2)CC(c2c(Cl)cccc2Cl)=NO1 (stereo not given)	1	-7	-0.5	-4	0	0.6	1.5	1.2
COc1cc(C(=S)N2CCCC2)ccc1OCC(N)=O	-5	2	-3.0	-6	-2	0.5	-7.5	-1.3
CCc1nn(CCCC(=O)NCc2ccccc2C)c(=O)c2cc3occc3n12	4	0	2.9	6	-2	6.0	1.3	0.5
COc1cc(/C=N/NC(=O)COc2cccc(F)c2)ccc1OS(=O)(=O)c1ccc(C)cc1	·	-9	2.4	4	6	·	-1.3	-0.2
COc1ccc(CNC(=O)c2cc(-c3ccccc3O)n[nH]2)cc1	-4	-6	-1.6	2	0	1.0	-3.7	-0.6
CCOC(=O)c1cnc2ccc(F)cc2c1Nc1ccc2c(c1)OCCO2	7	4	-4.9	17	7	5.7	1.8	0.8
Cc1cc(C)n2nc(S(=O)(=O)N(C)c3ccccc3)nc2n1	2	-5	2.4	-3	-11	6.3	-2.2	-1.1
CC(=O)Nc1nc(SCC(=O)NCC2CCCO2)[nH]c(=O)c1NC(=O)c1cccs1 (stereo not given)	6	-17	2.4	-18	6	1.3	-0.1	0.8
O=C(C1=C[C@H](C2CCCCC2)C[C@H](OCCCCO)O1)N1CCOCC1	3	-25	-4.8	-3	0	4.2	-6.0	-0.1
Cc1ccc2c(c1)[C@H]1[C@H](CO2)[C@H](c2ccccc2)[C@]2(C)C(=O)Nc3cc(Cl)ccc3C(=O)N12	2	·	·	·	-3	1.4	-5.0	-0.7
O=C(c1ccc(-n2cnnn2)cc1)N1CCN(C(c2ccccc2)c2ccccc2)CC1	-2	-2	-0.4	5	1	27*	0.0	1.0
COc1ccc(C(=O)N(Cc2cccs2)C2CCS(=O)(=O)C2)cc1 (stereo not given)	-5	0	2.2	-10	-2	-1.2	-4.2	-1.0
CCOC(=O)C1CCN(Cc2ccc(F)c(Br)c2)CC1	-4	9	9.8	-3	9	3.2	-0.6	0.1
Cn1c(=O)[nH]c(=O)c2c1nc(CN1CCN(c3cccc(Cl)c3)CC1)n2Cc1ccccc1Cl	·	5	2.3	7	8	1.5	-1.0	-0.4
CN(C)CCCNCCCNC(=O)c1ccco1	-4	-8	3.9	-8	1&6	1.4	2.0	-0.7
Cc1ccc(C(=O)NCC(=O)OCC(=O)Nc2cc(C)c(C)cc2[N+](=O)[O-])cc1	-6	21	-0.7	-6	-2	4.5	-0.9	0.1

Further structures:
SMILES	Beta apoptosis	Calb FLC	RanGTP-Impb inh	T cruzi repl	B2AR ag	UCH37 DUB inh	LANA-H2B inh	A1 inh
COc1ccc(-c2nc(SCC(=O)N3CCCC3)n[nH]2)cc1	-5	-2	1.8	-2	-9	0.2	2.5	-0.5
O=C(COc1cccc2cccnc12)NNC(=O)Nc1ccccc1	-7	-7	2.7	-9	0	1.8	1.2	-0.4
COc1ccccc1N1CCN(C(=O)c2cc3c(C)nc4ccccc4c3o2)CC1	37	-20	2.6	14	14	3.0	-5.5	-1.0
S=C(NNC(=S)NC1CC2C=CC1C2)NC1CC2C=CC1C2 (stereo not given)	·	-3	-0.5	3	7	0.8	-1.9	0.1
CCOC(=O)c1cc(S(=O)(=O)Nc2cccc(OC)c2)cn1C	4	3	-1.2	-13	4	3.0	-0.9	-1.3
Cc1cc(=O)oc2cc(OCC(O)CN3CCc4ccccc4C3)ccc12 (stereo not given)	6	2	-0.3	20	6	-28	-1.5	0.6
COC(=O)c1cc(OC)c(OC)cc1NC(=O)CSc1ccccc1	3	-2	0.3	9	6	-1.7	0.5	-1.0
CCOC(=O)c1c(C)n(C)c2ccc(O)c(CN(CC)CC)c12	1	22	-1.5	14	0	3.3	3.8	1.2
Cc1cc2oc(C(=O)N(Cc3cccs3)C3CCS(=O)(=O)C3)cc(=O)c2cc1Cl (stereo not given)	7	8	0.3	-15	-18	3.2	1.5	0.6
O=C(/C=C/c1ccccc1[N+](=O)[O-])N1CCCCC1	-4	8	-5.5	-4	-8	4.8	-6.8	-0.5
Cc1ccc(S(=O)(=O)N(CC(=O)NCCSc2ccccn2)c2ccc(C)c(C)c2)cc1	3	8	6.3	45	-12	0.5	-8.9	0.1
O=C(Nc1ccccc1F)c1ccc(-n2cncn2)nc1	2	3	1.3	14	-17	-2.0	0.2	0.1
COC(=O)[C@H](Cc1ccccc1)NC(=O)Nc1ccc(OC)cc1	-3	1	-0.3	-10	-6	6.1	0.1	0.1
CCOC(=O)c1sc(/S(C)=N\S(=O)(=O)c2cccc(Cl)c2)c2c1CCC=C2 (stereo not given)	-4	-3	-0.7	1	5	·	3.6	0.4
CSCC[C@H](NC(=O)N1CCn2c1nc1ccccc12)C(=O)NC1CCCCC1	-6	-7	0.5	-16	-18	-0.8	-4.4	-1.4
CCOC(=O)c1nn(C)c(C)c1Cl	0	7	-1.2	-4	5	-0.3	-3.6	0.3
Cc1ccccc1NC(=O)C(C)c1ccc(-c2ccccc2)c(F)c1 (stereo not given)	2	-2	-3.0	32	-3	-0.2	-0.9	0.9
C/C(=C\C(=O)c1ccc(Br)cc1)Nc1ccc(Cl)cc1	7	-29	-0.8	2	7	2.8	5.3	0.0
NC(=S)N=Nc1c(O)n(C2OC(=O)c3ccccc32)c2ccccc12 (stereo not given)	-6	6	0.8	2	-6	-5.7	-2.2	0.1
Cc1ccc(NS(=O)(=O)c2cccc(C(=O)Nc3cccnc3)c2)c(C)c1	4	·	·	·	-3	3.6	1.7	-1.2
CCOC(=O)N1CCN(S(=O)(=O)c2ccc(OCC)cc2)CC1	-5	4	-0.6	-3	-4	4.4	4.9	-0.2
Cn1c(=O)[nH]c(=O)c2c1nc(Br)n2CCSc1ncccn1	-6	-7	4.2	-1	-10	4.7	-0.2	-0.1
S=c1nc(-c2ccccc2)[nH]n1-c1ccccc1	-1	14	-0.6	-7	-4	-1.2	-1.4	-0.1
O=C(COC(=O)C1c2ccccc2Oc2ccccc21)NC1CCS(=O)(=O)C1 (stereo not given)	2	-4	?	-13	1	-4.9	0.1	0.4

Copied from the list.
B2AR ag, COCCNCC(=O)Nc1ccc(C)c(S(=O)(=O)N2CCCCC2)c1 is entered as -5
Beta apoptosis, S=c1nc(-c2ccccc2)[nH]n1-c1ccccc1 is entered as -1

The order is random. Share with any hit: about 4.3%.
